Screening results: PubChem BioAssay, National Center for Advancing Translational Sciences (NCATS)
YjeE inh: qHTS Assay for Inhibitors of YjeE. tRNA threonylcarbamoyladenosine biosynthesis protein TsaE (Escherichia coli (strain …. purified YjeE, fluorescence polarisation of a bound ADP probe. Potency, µM. 0.05% of 71,000 active. AID 605, 2007; active = well fitted falling curve; inconclusive = weaker or top-dose-only fall, or a rising curve; inactive = flat or poorly fitted curve;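 further: top concentration of the series not given in the record; excess ADP was the control for the full effect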
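Purified YjeE (10 uM) with BODIPY Texas Red-labeled ADP probe (2 uM); compounds pin-transferred, 15 min at room temperature. Binding inhibition read as decreased fluorescence polarization; ADP titration as control.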
PK Bst: Pyruvate Kinase. partly purified Bacillus stearothermophilus pyruvate kinase, luminescence ATP production; ribose 5-phosphate activator present at AC10. Potency, µM. 1.2% of 51,000 active. AID 361, 2006; in the data active means potency below about 11 µM; inconclusive means mostly about 12 µM to 25 µM; inactive means weaker than that;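 the screen sought inhibitors and activators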;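 further: potency means the concentration at half of the fitted maximal effect; scaled between full activation by ribose 5 phosphate and full inhibition by luteolin; about four in five hits inhibit and the cells do not say which; series up to 57 µM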
* = called active by the depositor; i = inactive; ? = inconclusive; · = no result given.

SMILES | YjeE inh | PK Bst
Cc1cc(C)n(S(=O)(=O)c2ccc(C)c(C)c2C)n1 | i | i
CCOc1ccccc1NC(=O)N1CCCC1C(=O)Nc1ccc(-n2cnnn2)c(C)c1 (configuration not stated) | i | >57
Cc1noc(C)c1C(=O)N1CCC2(CCN(Cc3ccc(C#N)cc3)CC2)CC1 | i | ·
FC(F)(F)c1nnc2sc(-c3ccncc3)nn12 | i | >57
O=C(C1CCN(CC2CCCCC2)CC1)N1CCCC1 | i | ·
CN1CCN(C(=O)c2cc(-c3ccc(O)cc3)on2)CC1 | i | ·
Cc1ccc(-n2nc3c(c2NC(=O)c2c(-c4ccccc4Cl)noc2C)CSC3)cc1 | i | >57
O=C(O)CCNCC(=O)O | i | ·
COc1ccc(CNc2ncnc3ccc(-c4ccccc4C#N)cc23)c(OC)c1 | i | ·
O=C(CSc1nnc(-c2cccs2)o1)N1CCc2ccccc21 | i | >57
CC1=C(C(=O)Nc2ccc(Cl)cc2)C(c2cccs2)n2nnnc2N1 (configuration not stated) | i | >57
CC1CCCCN1CCNC(=O)c1cnn2ccccc12 (configuration not stated) | i | ·
O=C(CCS(=O)(=O)c1cc(Br)cc2c1N(C(=O)C1CC1)CC2)NCc1ccco1 | i | >57
COc1ccc(C2CC(=O)C3=C(C2)NC(C)=C(C#N)C3c2ccc(N(C)C)cc2)cc1 (configuration not stated) | i | ·
CSc1ncnc2nc[nH]c12 | i | ·
Cc1nnc(SCC(=O)NCc2cccs2)[nH]c1=O | i | >57
CCCCS(=O)(=O)Nc1ccc2c(c1)ncn2C1CCCCC1 | i | >57
Cc1ccc(OC(=O)NC2CCS(=O)(=O)C2)cc1C (configuration not stated) | i | >57
CC(O)CC(C)O (configuration not stated) | i | ·
Cc1cc(C)nc(NC(=O)C(C)N2C(=O)c3ccccc3C2=O)n1 (configuration not stated) | i | >57
Cc1c(C(=O)Nc2cccc(C(F)(F)F)c2)oc2ccc(S(=O)(=O)N3CCOCC3)cc12 | i | >57
c1cncc(-c2nnc(-c3cccnc3)nn2)c1 | i | >57
CC(C)c1cc(C(=O)Nc2cc(Cl)ccc2O)no1 | i | ·
CC1CCN(C(=O)COC(=O)c2n[nH]c3ccccc23)CC1 | i | ·
O=C(CSc1nnc(-c2cc3ccccc3cc2O)n1Cc1ccco1)c1ccc(F)cc1 | i | >57

Single records, as listed above.
CC(O)CC(C)O (configuration not stated) reads YjeE inh: i; PK Bst: ·
Cc1cc(C)n(S(=O)(=O)c2ccc(C)c(C)c2C)n1 reads YjeE inh: i; PK Bst: i

Next section
SMILES | YjeE inh | PK Bst
Cc1ccc2c(C(=O)CN3CCN(C4CCCCC4)CC3)c(C)[nH]c2c1 | i | ·
COC(=O)C(CC(C)C)NC(=O)c1cc(OC)c(OC)c(OC)c1 (configuration not stated) | i | ·
COC(=O)COc1ccc(S(=O)(=O)Nc2ccc3c(c2)OCCO3)cc1Cl | i | >57
Oc1cccc(O)c1O | i | ·
Cc1sc2ncn(CC(=O)N(CC(=O)NC3CCCC3)Cc3cccs3)c(=O)c2c1C | i | >57
COc1cccc(NC(=O)C2CCCN(S(=O)(=O)c3ccc(-n4cnnn4)cc3)C2)c1 (configuration not stated) | i | >57
O=C(COc1ncnc2ccccc12)NC(=O)NCc1ccccc1 | i | >57
CC1(C)NC(=O)N(CC(O)COC2CCCCC2)C1=O (configuration not stated) | i | >57
Cc1cccc2nc(CNc3ccc(F)cc3)cn12 | i | >57
CN(CCC#N)c1ncnc2scc(-c3ccccc3)c12 | i | >57
CSc1ccccc1NC(=O)CN(c1ccccc1)S(=O)(=O)N(C)C | i | >57
C[C@H](O)C(=O)C1=Nc2c(nc(N)[nH]c2=O)NC1 | i | ·
Cc1[nH]c2ccccc2c1NC(=O)CN1CCN(c2cccc(C(F)(F)F)c2)CC1 | i | >57
Cc1ccc(-n2nnnc2SCC(=O)N2CCN(C(=O)c3ccco3)CC2)c(C)c1 | i | >57
C1CCC(n2nnnc2CN2CCN(C3CCCC3)CC2)CC1 | i | >57
O=C(O)c1cc2nc(C3CC3)cc(C(F)(F)F)n2n1 | i | ·
O=C(O)c1ccccc1NS(=O)(=O)c1ccc2c3c(cccc13)C(=O)N2 | i | >57
O=C(c1ccco1)N1CCN(C(=O)c2sccc2-c2ccccc2)CC1 | i | >57
COC(=O)c1cccc(N2C(=O)c3ccccc3S2(=O)=O)c1 | i | >57
CC(C)OCCCNC(=O)C1CCC(=O)N1C(C)C (configuration not stated) | i | >57
CCc1ccccc1NC(=O)C1CCCN(S(=O)(=O)c2c(C)noc2C)C1 (configuration not stated) | i | >57
COc1ccc(CNc2nc(-c3cccnc3)nc3ccccc23)c(OC)c1 | i | ·
COc1cc2nc(SCC(=O)NCc3ccco3)n(Cc3ccc(Cl)cc3)c(=O)c2cc1OC | i | >57
COC(=O)C1CCN(C(c2cccs2)c2sc3nc(C)nn3c2O)CC1 (configuration not stated) | i | ·
O=C(NC1CC2CCCC(C1)N2C(=O)Nc1ccccc1)c1ccncc1 (configuration not stated) | i | >57

Molecules above containing an aryl thioether with sulfur outside any ring, in the order listed:
SMILES | YjeE inh | PK Bst
O=C(CSc1nnc(-c2cccs2)o1)N1CCc2ccccc21 | i | >57
CSc1ncnc2nc[nH]c12 | i | ·
Cc1nnc(SCC(=O)NCc2cccs2)[nH]c1=O | i | >57
O=C(CSc1nnc(-c2cc3ccccc3cc2O)n1Cc1ccco1)c1ccc(F)cc1 | i | >57
CSc1ccccc1NC(=O)CN(c1ccccc1)S(=O)(=O)N(C)C | i | >57
Cc1ccc(-n2nnnc2SCC(=O)N2CCN(C(=O)c3ccco3)CC2)c(C)c1 | i | >57
COc1cc2nc(SCC(=O)NCc3ccco3)n(Cc3ccc(Cl)cc3)c(=O)c2cc1OC | i | >57

Additional records follow:
SMILES | YjeE inh | PK Bst
COc1cc(CN2CCC(C(=O)N3CCN(c4ccccc4F)CC3)CC2)cc(OC)c1OC | i | >57
COc1cc(-c2nn3c(COc4ccccc4)nnc3s2)cc(OC)c1OC | · | >26
CCS(=O)(=O)N1CCCC(C(=O)NCCCOC(C)C)C1 (configuration not stated) | i | >57
CCOC(=O)c1cc2sc(C)cc2n1CC(=O)NCCc1ccccc1 | i | >57
Cc1cc(C)nc(NS(=O)(=O)c2ccc(NC(=O)NC3CCCCC3)cc2)n1 | i | >57
COc1cccc2c(C)nc(Nc3nc(CSc4nnc(C)s4)cc(=O)[nH]3)nc12 | i | >57
O=C(Oc1ccccc1)N1CCC2(CC1)CN(c1ccncc1)C2 | i | ·
COc1ccc(CC(=O)Nc2ccc(-c3nnc(-c4ccccc4)o3)cc2)cc1 | i | ·
O=C(CN1CCN(c2ncccn2)CC1)NCCC1=CCCCC1 | i | >57
COc1ccc(CCn2c(C)ccc2C)cc1OC | · | >26
CCOc1cc(S(=O)(=O)Nc2ccc(Cl)cn2)ccc1F | i | >57
Nc1cc(=O)[nH]n1C1CCN(c2ccccc2)CC1 | i | >57
COc1cc2nc(C3CC3)n(NC(=O)c3ccc(F)cc3)c(=O)c2cc1OC | i | >57
CC(=O)OC(C(=O)NCCc1ccccc1)c1cccnc1 (configuration not stated) | i | >57
CCOc1ccc(C(=O)NCCCn2ccnc2)cc1 | i | >57
CC(=O)Oc1cccc(N2C(=O)CC(Nc3ccc(N4CCOCC4)cc3)C2=O)c1 (configuration not stated) | i | >57
COC(=O)c1[nH]c(C)c(/C(O)=C2\C(=O)C(=O)N(CCN(C)C)C2c2ccccc2OC)c1C (configuration not stated) | i | >57
O=C1CC(c2nc3ccccc3[nH]2)CN1c1ccccc1 (configuration not stated) | i | >57
CC(=O)c1nccs1 | i | ·
CCCCn1cc(C(C)(C)C)c(C#N)c1NC(C)=O | i | ·
N#CC(C#N)=CNCCN1CCN(C=C(C#N)C#N)CC1 | i | ·
Nc1ccn([C@H]2CC[C@H](CO)O2)c(=O)n1 | i | ·
Fc1ccc(C(c2nnnn2C2CCCC2)N2CCN(Cc3ccccc3)CC2)cc1 (configuration not stated) | i | >57
COC(=O)c1ccccc1NC(=O)C1CCCC1 | i | >57
O=C(Nc1cc(C(=O)N2CCCC2)ccc1N1CCCC1)c1ccccc1F | i | >57

Next section.
SMILES | YjeE inh | PK Bst
O=C(O)CCc1ccc(-c2ccc(F)cc2)n1CCC(=O)O | i | >57
Oc1ccc(N=Cc2ccc(-c3cccs3)s2)cc1 | i | ·
COc1ccc(-n2c(=O)c3c4c(sc3n3c(C)nnc23)CC(C)CC4)cc1 (configuration not stated) | · | >26
COc1ccc(Cl)cc1NC(=O)N1CCN(CCc2ccccc2)CC1 | i | >57
COc1ccc(NC(=O)c2ccc3c(c2)C(=O)N(Cc2cccnc2)C3=O)cc1 | i | >57
CN(C)CCCSC(=N)N | i | ·
CC(C)=CCC/C(C)=C/CCC(C)NCCN1CCNCC1 (configuration not stated) | i | >57
O=C(CCCCCC(=O)N(CCO)CCO)N(CCO)CCO | i | >57
O=c1c[n+]([O-])c2ccccc2n1OCc1ccccn1 | i | >57
O=C(NCC1CCCO1)c1ccccc1-c1nc(-c2ccccc2)no1 (configuration not stated) | i | >11
Cc1cc(C(c2nnnn2Cc2ccccc2)N2CCOCC2)c(C)n1-c1ccc2c(c1)OCO2 (configuration not stated) | i | >57
CCOC(=O)N1CCN(C(=O)CSc2nnc(COc3ccc(Cl)cc3)o2)CC1 | i | ·
Cn1ncc(C#N)c1/N=C/N1CCOCC1 | i | >57
CCOC(=O)c1ccccc1NC(=O)COc1ccccc1 | i | >57
CC1(C)Cc2nc3oc4c(N(CCO)Cc5ccccc5)ncnc4c3cc2CO1 | i | >57
CCOc1cc(S(=O)(=O)NC2CC(C)(C)NC(C)(C)C2)ccc1F | i | >57
CN1CCN(C(=O)c2ccccc2-c2nc(-c3ccc(Cl)cc3)no2)CC1 | i | ?
CC1(C)CC(=O)CC(C)(C)N1OC(=O)c1ccncc1 | i | >57
O=C(N1CCCCCC1)N1CCN(S(=O)(=O)N2CCCCC2)CC1 | i | >57
COC(=O)c1cccc(Cn2nnc3ccccc3c2=O)c1 | i | >57
Cc1c(C)c2cc(Cl)c(O)c(CN(C)C)c2oc1=O | i | >57
CCOC(=O)C1=C(N)Oc2cc(C)n(CCc3ccc(OC)c(OC)c3)c(=O)c2C1c1cccnc1 (configuration not stated) | i | >57
CCOC(=O)N1CCC(NC(=O)c2cc3c(-c4ccc(Cl)cc4)nn(C)c3s2)CC1 | i | ·
CCN(CC)C(=O)CSc1nc2ccccc2c(=O)n1CC1CCCCC1 | · | >26
CCS(=O)(=O)N1CCCC(C(=O)NCCCN(C)Cc2ccccc2)C1 (configuration not stated) | i | >57

Next structures:
SMILES | YjeE inh | PK Bst
Cc1cccc(N2CCN(C(=O)c3ccc(NS(=O)(=O)c4c(C)noc4C)cc3)CC2)c1C | i | >57
CCn1c(=O)c(=O)[nH]c2cc(C(=O)NC3CCCc4ccccc43)ccc21 (configuration not stated) | i | i
CCN(C#N)c1nc(N(C)C)nc(N(C)C)n1 | i | >57
CCC(=O)c1cc(F)c(N2CCN(C(=O)Cc3ccccc3)CC2)cc1C | i | >57
CN(c1ccccc1)c1nc(-n2ccnc2)nc(-n2ccnc2)n1 | i | i
COc1ccc(-n2c(Cn3c(=O)sc4ccccc43)nnc2SC)cc1 | i | ·
O=C(CN1CCCN(S(=O)(=O)c2ccc(Br)cc2)CC1)Nc1ccc2cn[nH]c2c1 | i | >57
COc1cc(C2C(C(=O)OC(C)C)=C(C)Nc3ncnn32)cc(OC)c1OC (configuration not stated) | i | ·
Cn1c(=O)[nH]c(=O)c2c1nc(Br)n2CC(O)c1ccccc1 (configuration not stated) | i | >57
O=C(NCC1CC1)[C@@H]1C[C@H]1[C@@H](NP(=O)(c1ccccc1)c1ccccc1)c1ccccc1 | i | ·
CN(CC(=O)Nc1ccc(Cl)cc1)CC(=O)Nc1cc(Cl)ccc1C#N | i | >57
CC(=O)Nn1c(-c2ccccc2)cc2ccccc21 | i | >57
CC(=O)Nc1c(O)nc(SCC(=O)Nc2ccc(C(C)=O)cc2)[nH]c1=O | i | >57
CCC(C)(C(=O)NC1CCCC1)N(CC1CCCO1)C(=O)c1ccc2c(c1)OCO2 (configuration not stated) | i | >57
Cn1cc(/C=N/n2cnc3scc(-c4ccccc4)c3c2=O)c2ccccc21 | i | >57
CS(=O)(=O)N(CCc1ccccc1)CC(=O)N1CCN(Cc2ccccc2)CC1 | i | >57
C[N+]1(C)CCc2cc(O)c(O)cc2[C@H]1Cc1ccc(O)c(O)c1 | i | ·
C=CCOc1ccc(C2/C(=C(\O)c3c(C)[nH]c(C(=O)OC)c3C)C(=O)C(=O)N2CCN(C)C)cc1 (configuration not stated) | i | >57
CCN(CC)C(=O)CN1CCC(n2c(C)nc3cc(C(F)(F)F)ccc32)CC1 | i | >57
CN1C(=O)c2ccc(N(C)C)cc2C1=O | · | >26
C=CCn1c(SCc2csc(C)n2)nc2scc(-c3ccc(C)o3)c2c1=O | i | >57
Cc1cccc(-n2c(SCCC(=O)O)nnc2-c2cccs2)c1C | i | >57
COC(=O)c1cc(OC)c(OC)cc1NC(=O)CCc1ccc(C)o1 | i | >57

2 records drawn at random from those above:
SMILES | YjeE inh | PK Bst
CS(=O)(=O)N(CCc1ccccc1)CC(=O)N1CCN(Cc2ccccc2)CC1 | i | >57
COC(=O)c1cc(OC)c(OC)cc1NC(=O)CCc1ccc(C)o1 | i | >57

Only part of the results is shown (hit frequency here may not be typical).
